EPAC2 antag: validation of human EPAC2 antagonists; EPAC2 Rap1B BODIPY-GDP exchange, fluorescence; Potency, µM (top dose mostly 112 µM), inactives show at the highest dose activity, negative = inhibition, actives largely listed as inhibitors; AID 1645886; 16,000 compounds, 1.7% hits; Q8WZA2; active means well fitted inhibition curve with a large enough effect; inconclusive means small, poorly fitted or top-dose-only effect; inactive means no such curve, though single readings can be large or run the other way;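 further: 100% = activation by cAMP agonist control; nearly all actives have a fitted effect of over 40% in size; the record reuses the description of the EPAC1 agonist screen; inactives centre near -10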
Target sequence (Q8WZA2 whole entry, looked up): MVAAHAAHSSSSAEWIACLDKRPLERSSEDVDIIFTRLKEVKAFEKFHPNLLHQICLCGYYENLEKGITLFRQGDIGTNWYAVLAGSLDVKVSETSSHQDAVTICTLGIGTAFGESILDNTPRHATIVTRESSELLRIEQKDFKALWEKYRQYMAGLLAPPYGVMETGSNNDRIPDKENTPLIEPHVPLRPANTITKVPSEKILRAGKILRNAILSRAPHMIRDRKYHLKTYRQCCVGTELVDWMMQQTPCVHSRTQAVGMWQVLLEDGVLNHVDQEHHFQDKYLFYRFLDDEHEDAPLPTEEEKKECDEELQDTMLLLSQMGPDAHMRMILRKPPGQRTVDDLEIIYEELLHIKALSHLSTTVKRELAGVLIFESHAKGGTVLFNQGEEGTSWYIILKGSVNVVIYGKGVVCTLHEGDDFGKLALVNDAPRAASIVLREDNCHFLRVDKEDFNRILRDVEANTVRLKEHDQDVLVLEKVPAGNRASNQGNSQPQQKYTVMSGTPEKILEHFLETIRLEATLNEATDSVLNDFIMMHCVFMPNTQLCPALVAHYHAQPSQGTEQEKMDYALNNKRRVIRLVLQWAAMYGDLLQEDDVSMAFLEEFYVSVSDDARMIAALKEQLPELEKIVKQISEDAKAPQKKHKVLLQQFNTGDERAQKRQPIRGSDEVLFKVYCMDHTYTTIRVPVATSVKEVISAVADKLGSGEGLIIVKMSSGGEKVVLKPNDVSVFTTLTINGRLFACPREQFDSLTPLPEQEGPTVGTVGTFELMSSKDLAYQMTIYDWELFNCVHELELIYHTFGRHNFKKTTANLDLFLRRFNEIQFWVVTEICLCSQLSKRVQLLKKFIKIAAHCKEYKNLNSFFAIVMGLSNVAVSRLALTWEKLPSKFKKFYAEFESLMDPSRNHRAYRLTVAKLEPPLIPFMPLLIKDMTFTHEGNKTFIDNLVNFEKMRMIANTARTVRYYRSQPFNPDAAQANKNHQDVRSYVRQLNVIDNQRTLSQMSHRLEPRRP
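Normalized against a 6.5 mM cAMP agonist control, compounds were tested on 100 nM EPAC2 exchanging Rap1B-bound BODIPY-GDP (250 nM) for 50 uM GDP. Fluorescence drop (ex 480, em 540 nm) was tracked at room temperature over 30 min at 5-min intervals.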
Starred values were filed as active, the others as inactive; ? = inconclusive; & = joins results of further samples; [ ] = another dose, or the depositor's remark. Potency means the concentration at half of the fitted maximal effect. An excerpt; rates above refer to the full screens.

SMILES,EPAC2 antag
CC(C)(C)CC(C)(C)N=C1Nc2ccc([N+](=O)[O-])cc2N[C@]12C[C@H]1CCCC(=O)N3CC[C@@H](C2)[C@@H]13,-5%
CC(=O)OC1C=C[C@]2(C)C(CC(OC(C)=O)[C@@]3(C)C4=CC(=O)OC(c5ccoc5)[C@]4(C)CCC23)C1(C)C (some centres undefined),-21%
CCOC(=O)OC(C)OC1=C(C(=O)Nc2ccccn2)N(C)S(=O)(=O)c2ccccc21 (centres undefined),-10%
Cc1csc(C(C)N(C)C(=O)c2cnn(-c3nccc(-c4cc(C)sc4C)n3)c2C)n1 (centres undefined),-28%
C[C@@H]1Nc2ccc(Cl)cc2S(=O)(=O)N1,?
CNc1ncncc1-c1ccccc1C(F)(F)F,-23%
Cc1ncc(C[n+]2csc(CCOP(=O)(O)O)c2C)c(N)n1,6%
COc1ccc(O)c(CN2CCC3(CCC(CNC(=O)c4ccco4)O3)CC2)c1 (centres undefined),-11%
N#CCCn1c(=O)c(-c2cccc(C#N)c2)nc2cnc(N3CCOCC3)nc21,-11%
C[N+](C)(C)CCOP(=O)([O-])OP(=O)(O)OCC1OC(n2ccc(N)nc2=O)C(O)C1O (centres undefined),-9%
O=C(CCCN1CCN(c2ccc(F)cc2)CC1)NC1c2ccccc2CSc2ccccc21 (centres undefined),-5%
C[C@@H]1CN(Cc2ccc3c(c2)CN(C(=O)CN2CCOc4ccccc4C2)CCO3)C[C@H](C)O1,-13%
COc1ccccc1CN1[C@@H](CC(=O)O)c2ccccc2S1(=O)=O,-14%
CN(C)Cc1ccccc1-c1nccc(NC2CC2)n1,-4%
Cc1ccc(Nc2nccc(N(C)c3ccc4c(C)n(C)nc4c3)n2)cc1S(N)(=O)=O,0%
COC(=O)C1=C(C)NC(C)=C(C(=O)OCC(C)C)C1c1ccccc1[N+](=O)[O-] (centres undefined),?
Oc1ccc(/C=C/c2ccc(/C=C/c3ccc(O)cc3)c(Br)c2)cc1,-2%
COCCn1c(=O)c(-c2cn(C)c3ccccc23)nc2cnc(Oc3ccccc3)nc21,-11%
COc1ccccc1N1CCN(CCCCN2C(=O)CCC2=O)CC1,-10%&-19%
Cc1c(C(=O)N2CCCCC2c2cccnc2)sc2ncnc(NCc3cccs3)c12 (centres undefined),-15%
CCCCC(CC)COC(=O)C(C#N)=C(c1ccccc1)c1ccccc1 (centres undefined),-6%
CCCCCCCCCCCCC/C=C/[C@@H](O)[C@H](CO)NCCCCCCCC,-10%[11.4 µM]
O=C(C1CCCCC1)N(CCN1CCN(c2ccccc2CO)CC1)c1ccccn1,?
COc1ccc(-c2nc3cnc(N(C)C)nc3n(Cc3ccc(F)cc3)c2=O)cc1,15%
C[N+]1(CCCCC[N+]2(C)CCCC2)CCCC1,-19%&16%&-12%
Cc1cnc(CNc2ncncc2-c2cccc(NS(C)(=O)=O)c2)cn1,-15%
COc1cc(=O)n2c(c1C(=O)N(C)Cc1nonc1C)CCN(Cc1ccc(C)cc1C)CC2,?
O=C(O)c1cccc(-c2noc(-c3ccccc3F)n2)c1,-3%
CNc1nc(-c2ccccc2Cl)nc2ccccc12,-19%
Cc1cnc(-n2ncc(C(=O)NCCN3CCOCC3)c2-c2cccs2)nc1-c1ccc(F)cc1,-25%
CC(C)(CNC(=O)c1cnn(-c2nccc(-c3cccs3)n2)c1C1CC1)N1CCOCC1,30%
CCNc1ncc2nc(-c3ccc(OC)cc3)c(=O)n(Cc3cccs3)c2n1,-20%
COc1ccccc1CNc1ncncc1-c1ccc(C(=O)N(C)C)cc1,-15%
CN1CC(O)c2cc(N=NC(N)=O)c(O)cc21 (centres undefined),-33%
Cc1cccc(CNc2cc(-c3cccnc3)ncn2)c1,-9%
CCOC(=O)C1=C[C@@H](OC(CC)CC)[C@H](NC(C)=O)[C@@H](N)C1,-6%
CN1CCN(c2ncc3nc(-c4cccs4)c(=O)n(CCc4ccccc4)c3n2)CC1,46%[activator]
CC(C)=CCCC(C)C1CC[C@@]2(C)C3=C(CC[C@@]12C)C1(C)CCC(O)C(C)(C)C1CC3 (some centres undefined),-17%
Cc1cccc2c(N3CCCC3)nc(CNS(=O)(=O)c3ccc4ccccc4c3)nc12,2%
CCCCCCCCCCCCCCCC(=O)N[C@@H](COP(=O)(O)O)C(=O)O,?

Reformatted: results already given
> COc1ccccc1CNc1ncncc1-c1ccc(C(=O)N(C)C)cc1
  EPAC2 antag: -15%

> CN1CC(O)c2cc(N=NC(N)=O)c(O)cc21 (centres undefined)
  EPAC2 antag: -33%

> Cc1cccc(CNc2cc(-c3cccnc3)ncn2)c1
  EPAC2 antag: -9%

> CCOC(=O)C1=C[C@@H](OC(CC)CC)[C@H](NC(C)=O)[C@@H](N)C1
  EPAC2 antag: -6%

(cont.)
SMILES,EPAC2 antag
O=S(=O)(c1ccccc1)N1CCC2(CCN(Cc3ccccc3)CC2)CC1,-18%
O=S1(=O)CCOC[C@H](CC2CCCCC2)N1Cc1ccc(F)cc1,?
Nc1ccc(C(=O)Oc2ccccc2)c(O)c1,?
COC(=O)c1cc(CNC(=O)c2ccccc2OC)cc(NC(=O)c2ccccc2F)c1,-29%
Cc1ncc(COP(=O)(O)O)c(CN)c1O,21%
CCC(=O)OCC(=O)[C@@]1(OC(=O)CC)[C@H](C)C[C@H]2[C@@H]3CCC4=CC(=O)C=C[C@]4(C)[C@@]3(F)[C@@H](O)C[C@@]21C,?
CCCCC#Cc1nc(NC)c2ncn([C@@H]3O[C@@H](CO)[C@H](O)[C@H]3O)c2n1,-18%
Cc1cc(=S)[nH]c2ccccc12,?
COC(=O)C[C@H]1c2ccc(C(F)(F)F)cc2S(=O)(=O)N1Cc1ccccc1,25µM*
CS(=O)(=O)Nc1cccc(-c2cncnc2NCc2cccnc2)c1,-10%
COc1ccc(Oc2ncc3nc(-c4ccccc4)c(=O)n(Cc4cccs4)c3n2)cc1,-22%
CC1(C)CCC(=O)N2CC[C@H]3C[C@H](OC(=O)Nc4ccc(Br)cc4)C[C@@H]1[C@H]32,-25%
CC(C)/C(O)=C1/C(=O)OC(c2ccoc2)[C@@]2(C)C(O)C(O)[C@@]34OC5(C)OC67CC(C)(C(O)[C@@]6(O)C(O)[C@@]3(O5)C12)C(CC(=O)O)[C@@]74C (some centres undefined),-10%
COC(=O)N1CCC2(CC1)CCN(c1ncccn1)CC2,-14%
C[C@@H](NCCCc1cccc(C(F)(F)F)c1)c1cccc2ccccc12,-24%
NC(N)=NC(N)=Nc1ccccc1,?
O=C1C[C@H]2C=CCc3cccc(c32)CN1Cc1ccc(Cl)cc1,?
COc1ccc(OC)c(C(=O)N(Cc2cc3cccc(C)c3nc2N2CCC(O)CC2)C2CC2)c1,?
O=C(Nc1cccc(F)c1)N1CCCC2(CCN(C(=O)c3cnccn3)CC2)C1,-21%
COc1ncc2nc(-c3cn(C)c4ccccc34)c(=O)n(C[C@H]3CCCO3)c2n1,-12%

Overlap with the part before: two entries, followed by the next part.
SMILES,EPAC2 antag
O=C(Nc1cccc(F)c1)N1CCCC2(CCN(C(=O)c3cnccn3)CC2)C1,-21%
COc1ncc2nc(-c3cn(C)c4ccccc34)c(=O)n(C[C@H]3CCCO3)c2n1,-12%
COc1ccc2c(c1)CCc1cnc(-n3ncc(C(=O)N(C)CCc4ccccn4)c3C)nc1-2,-6%
CCCCCC#CCC#CCC#CCC#CCCCC(=O)O,-4%[11.4 µM]
COC(=O)CCC(C)C1CCC2C3C(O)C[C@@H]4CC(O)CC[C@@]4(C)C3CC(O)[C@]12C (some centres undefined),-22%
O=C(c1ccco1)N1CCC[C@@]2(CCN(c3cccc(-c4ccccc4)c3)C2)C1,-27%
C=Cc1c(C)c2cc3nc(cc4[nH]c(cc5nc(cc1[nH]2)C(C)=C5CCC(=O)OC)c(CCC(=O)O)c4C)[C@@]1(C)C3=CC=C(C(=O)OC)[C@H]1C(=O)OC,-4%
COc1cc(=O)n2c(c1C(=O)N(C)Cc1nccs1)CCN(Cc1ccc(F)c(F)c1)CC2,-17%
Cc1sc2ccccc2[n+]1CCc1ccccc1,-5%
COc1ccc(O)c(CN2CCC3(CCC(CNC(=O)c4ccccc4)O3)CC2)c1 (centres undefined),-26%
COc1ncc2nc(-c3ccc(Cl)cc3)c(=O)n(CCc3ccccc3)c2n1,-10%
CS(=O)(=O)Nc1cccc(-c2nccc(-n3ccnc3)n2)c1,-17%
CN1CCCC(n2nc(Cc3ccc(Cl)cc3)c3ccccc3c2=O)CC1 (centres undefined),-9%
CC(CSC(=O)c1ccccc1)C(=O)N1C[C@@H](Sc2ccccc2)C[C@H]1C(=O)O (some centres undefined),-10%
CCNc1ncc2nc(-c3cccs3)c(=O)n(Cc3cccs3)c2n1,12%
Fc1ccc(Nc2ncncc2-c2ccoc2)cc1,-12%
Nc1ncnc2c1ncn2[C@@H]1O[C@H](COP(=O)(O)O)[C@@H](O)[C@H]1O,-21%
Cc1cnc(C)c(-c2cc(F)cc3c2OC(CNC(=O)Cc2c(C)noc2C)C3)n1 (centres undefined),-29%
O=C([C@@H]1C[C@@H](Sc2nc3ccccc3[nH]2)CN1Cc1ccc(Cl)cc1)N1CCN(c2ccccc2F)CC1,-2%
O=C(O)Cn1c(C(=O)Nc2nc(-c3ccccc3Cl)cs2)cc2ccccc21,-25%
COc1cc2c(cc1O)C(Cc1ccc(O)cc1)[N+](C)(C)CC2 (centres undefined),-15%
O=S(=O)(c1ccccc1)N1CCC[C@@]2(CCN(c3cccc(-c4ccccc4)c3)C2)C1,-21%

(continued)
mol,EPAC2 antag
COc1ccc2[nH]cc(CCNC(=O)C3CC3)c2c1,-14%
CN1[C@@H](CC(=O)c2ccccc2)CCC[C@H]1C[C@H](O)c1ccccc1,-1%&-34%&-27%
O=C(C[n+]1cccc(Br)c1)c1ccc(Br)cc1,-12%
O=C(Cc1ccc(Cl)cc1)c1c(O)cc(O)cc1O,?
CN(C)c1ncc2nc(-c3cn(C)c4ccccc34)c(=O)n(C[C@H]3CCCO3)c2n1,23%
CCCCc1ncc(/C=C(\Cc2cccs2)C(=O)O)n1Cc1ccc(C(=O)O)cc1,5%
O=c1c(-c2cccs2)nc2cnc(N3CCNCC3)nc2n1CCc1ccccc1,20%
NC(N)=NCCN1CCCCCCC1,-24%
CN(C)Cc1ccccc1-c1cncnc1Nc1ccccc1,-12%
Fc1ccc(C(OCCCc2cnc[nH]2)c2ccc(F)cc2)cc1,?
CC(C)c1c(C(=O)NCc2ccncc2)cnn1-c1nccc(-c2cccs2)n1,?
COc1ccc(-n2c(=O)c(C)nc3cnc(N4CCNCC4)nc32)cc1,-11%
Cc1ncc2c(c1CNS(=O)(=O)N(C)C)CCN(C(=O)/C=C/c1ccccc1Cl)C2,1%
Cc1c(C(=O)N(C)C2CCOC2)sc2ncnc(NCC3(c4ccccc4)CCOCC3)c12 (centres undefined),10%
CC(CCc1ccc(O)cc1)NCCc1ccc(O)c(O)c1 (centres undefined),-12%&-14%
CCC(CO)NCCNC(CC)CO (centres undefined),-12%
CC/C=C\C/C=C\C/C=C\C/C=C\C/C=C\CCCCCC(=O)O,-8%[11.4 µM]
CC(C)CN(C[C@@H](OP(=O)(O)O)[C@H](Cc1ccccc1)NC(=O)O[C@H]1CCOC1)S(=O)(=O)c1ccc(N)cc1,-27%
COCCNc1nc(-c2ccccc2C(F)(F)F)nc2ccccc12,-27%
O=C1N[C@@H](Cc2c[nH]c3ccccc23)C(=O)N[C@H]1Cc1c[nH]c2ccccc12,-1%
O=c1c(-c2ccc(F)cc2)nc2cnc(Nc3ccccc3)nc2n1C[C@H]1CCCO1,-6%
CC(=O)SCC(CC(=O)c1ccc(C)cc1)C(=O)O (centres undefined),17%
COc1c(C=O)c(O)cc2c1C(=O)c1ccccc1C2=O,?
O=C1c2ccccc2C(=O)c2cc(Cn3cc(-c4cccc(C(F)(F)F)c4)nn3)ccc21,13%
COc1ccc(OC)c(CN2CCCC(c3nc(-c4ccncc4)ncc3-c3ccccc3C)C2)c1 (centres undefined),-1%
CCNc1ncc2nc(C)c(=O)n(Cc3cccs3)c2n1,-22%
N[C@H](Cn1ccc(=O)c(O)c1)C(=O)O,-15%
CCCCC1CN(CCNC(=O)c2ccccn2)Cc2ccccc2O1 (centres undefined),3%
O=C(c1ccncc1)N1CCC[C@@]2(CCN(c3ccccn3)C2)C1,-16%
CCCCCCCCCCCCCCCC(=O)OC[C@@H](NC(=O)C(Cl)Cl)[C@H](O)c1ccc([N+](=O)[O-])cc1,?
O=C(c1cc(C(F)(F)F)cc(C(F)(F)F)c1)N1CCC2(CC1)CN(c1ncccn1)C2,?
CC(C)(CNC(=O)c1cnn(-c2ncc3c(n2)-c2ccccc2CCC3)c1C1CC1)N1CCOCC1,7%
O=C(c1ccc2c(c1)OCO2)N1CCCCC1,-22%

2 compounds drawn at random from the list so far, as already listed:
mol,EPAC2 antag
C=Cc1c(C)c2cc3nc(cc4[nH]c(cc5nc(cc1[nH]2)C(C)=C5CCC(=O)OC)c(CCC(=O)O)c4C)[C@@]1(C)C3=CC=C(C(=O)OC)[C@H]1C(=O)OC,-4%
O=C(O)c1cccc(-c2noc(-c3ccccc3F)n2)c1,-3%
